Bioassay records deposited in PubChem BioAssay by National Center for Advancing Translational Sciences (NCATS).
RE007 growth inh: less growth of the S. pombe RE007 Vpr strain; S. pombe RE007 Vpr strain, BacTiter-Glo ATP luminescence, 24 h; control for the full effect not named in the record; Potency, µM (doses to about 92.2 µM), without a hit: at the highest dose activity change, negative = less growth; 0.21% of 360,000 active; active = well fitted falling curve with a large enough effect; inconclusive = small, poorly fitted or top-dose-only effect; inactive = no such curve, though single readings can be large or run the other way;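 note: nearly all actives have a fitted effect of over 50% in size; the assay follows cell death caused by Vpr and the record does not say whether a fall means rescue or toxicity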
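Fission yeast strain RE007, carrying one chromosomally integrated HIV-1 vpr copy, was seeded at OD 0.01 in PMG+AL medium with 23 nL pinned compound. After 24 h at 30 °C and 99% humidity, viability was read by BacTiter-Glo luminescence.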
2A StopGo: FMDV 2A StopGo reporter, luciferase signal. human cells with a luciferase reporter of 2A StopGo recoding; control for the full effect not named in the record. Potency, µM (highest dose often 57.9 µM), for inactives: at the top dose signal change, negative = less light. 1.2% of 410,000 active. AID 1159524; active = well fitted falling curve with a large enough effect; inconclusive = small, poorly fitted or top-dose-only effect; inactive = no such curve, though single readings can be large or run the other way; tested in HEK293T cells; note: nearly all actives have a fitted effect of over 45% in size; luciferase light after 4 h
Active calls of the source: *; ? = inconclusive; [ ] = remark or other dose. % is set by controls: 0 for no effect and ±100 for the full control effect; potency is the fitted concentration of half-maximal effect.

Results follow in this order: RE007 growth inh, 2A StopGo
- NC(COCc1ccccc1)c1csc(Nc2ccc(C(F)(F)F)cn2)n1 (stereo not drawn)
→ 10%[18.4 µM], -19%
- COC(=O)c1ccc2nc(C3CCCCC3)c(Cc3ccccc3)n2c1
→ 0%, -9%
- O=c1c(N=Nc2ccccc2)c[nH]n1-c1ccccc1
→ -20%, 40%[activator]
- Cc1noc(C)c1NC(=O)N(C)C[C@H]1OCc2cn(nn2)CCCC(=O)N([C@@H](C)CO)C[C@@H]1C
→ -5%, 4%
- CO[C@@H]1CN(C)C(=O)c2cc(NC(=O)Nc3cc(F)ccc3F)ccc2OC[C@H](C)N(C(=O)c2cnccn2)C[C@@H]1C
→ -4%, 0%
- NC(c1ccccc1)c1csc(NC(=O)Nc2ccccc2Oc2ccccc2)n1 (stereo not drawn)
→ -6%[18.4 µM], -1%
- Cc1cccc(C)c1-n1nnnc1C(C1CC1)N1CCC2(CC1)C(=O)NCN2c1ccccc1 (stereo not drawn)
→ 5%, ?
- COc1ccccc1S(=O)(=O)N(C)C[C@@H]1OCc2cn(nn2)CCCC(=O)N([C@@H](C)CO)C[C@H]1C
→ 6%, 5%
- CCCCC(=O)N(C)c1c(CC)nc2c(OCc3cc(Cl)cc(Cl)c3)cccn12
→ -9%[18.4 µM], -27%
- CC(=O)c1cccc(NC(=O)c2ccc(-c3c(C)noc3C)c3ccoc23)c1
→ -1%, -2%
- O=C(O)c1c(Cl)c(Cl)c(Cl)c(Cl)c1C(=O)OCC1CCCO1 (stereo not drawn)
→ 1%, -9%
- COc1ccc(C(CNC(=O)c2cccc(S(=O)(=O)Nc3ccc(F)cc3)c2)N2CCCCC2)cc1 (stereo not drawn)
→ -10%, 1%
- CCN(C(=O)CSc1nc2ccccc2n1CC(C)C)c1c(N)n(Cc2ccccc2)c(=O)[nH]c1=O
→ -6%, -16%
- CCCNC(=O)c1cc(C2CCCN(C(=O)c3ccc(NC(C)=O)cc3)C2)on1 (stereo not drawn)
→ 0%, 6%
- COc1cc(OC)cc(-c2c(Sc3ccccc3)c3cc(-c4cnc(N5CCOCC5)nc4)ccc3n2C)c1
→ 1%, -21%
- COc1ccccc1CNc1nc(NCc2ccc(C)cc2C)c2sccc2n1
→ 1%, ?
- COc1cc(CNc2ncnc3c2ncn3[C@H]2CN(Cc3ccc4c(c3)OCO4)C[C@@H](CO)O2)cc(OC)c1OC
→ 19%, -23%
- Cc1cc(C)n(CCCNC(=O)c2ccc(C)o2)n1
→ 3%, -16%
- CCOC(=O)[C@@H]1[C@H]2COc3ccccc3[C@@H]2N2C(=O)N(c3ccc(F)cc3)C(=O)[C@]12C
→ 7%, 4%
- Cc1ccccc1NC(=O)N1Cc2ccccc2-n2nncc2C1
→ -9%, -18%

Reprinted from the part before: 2 entries, then new ones.
Results follow in this order: RE007 growth inh, 2A StopGo
- CCOC(=O)[C@@H]1[C@H]2COc3ccccc3[C@@H]2N2C(=O)N(c3ccc(F)cc3)C(=O)[C@]12C
→ 7%, 4%
- Cc1ccccc1NC(=O)N1Cc2ccccc2-n2nncc2C1
→ -9%, -18%
- COc1cccc(-c2cc(CNC(=O)[C@H]3O[C@@H](n4cnc5c(N)ncnc54)[C@H](O)[C@@H]3O)no2)c1
→ 4%, -15%
- COCCNc1nc(Nc2ccc(C)cc2C)c2sccc2n1
→ ?, ?
- CN(Cc1cn(Cc2cccc(Cl)c2)nn1)C1CN(Cc2cn(Cc3cccc(Cl)c3)nn2)S(=O)(=O)C1 (stereo not drawn)
→ -9%, -20%
- CN(Cc1ccc2nsnc2c1)C(=O)C1CCC(=O)N(CCc2ccccc2)C1 (stereo not drawn)
→ -9%, -6%
- CC(=O)NC1CC2CCCC(C1)N2C(=O)Nc1ccc(Cl)cc1 (stereo not drawn)
→ -7%, -15%
- C/C=C1\NC(=O)[C@H](CC(N)=O)N(C)C(=O)C([C@@H](C)O)NC(=O)C(CCCc2ccc(OC)cc2)NC(=O)[C@H](C(C)C)NC(=O)/C(=C\C)NC(=O)[C@H](O)[C@@H](C[C@@H](O)CCCCCCC)NC(=O)[C@H](C)NC(=O)CN(C)C(=O)[C@H](CCC(N)=O)NC1=O (stereo partly drawn)
→ 59%, -7%
- CN(Cc1ccc(OC(F)F)cc1)C(=O)c1cccc(S(=O)(=O)N2CCN(c3ccccc3)CC2)c1
→ 10%, 20µM*
- COc1ccc(OC)c(NC(=O)Nc2nc(C(N)c3ccccc3Cl)cs2)c1 (stereo not drawn)
→ -5%, -10%
- O=C(CC1C(=O)NCCN1Cc1ccccc1)NC1CCCCC1 (stereo not drawn)
→ -12%, ?
- CCOC(=O)[C@]12CCC=C1N(Cc1cccc3ccccc13)C(=O)[C@H](CC(=O)N1CCN(C(=O)c3ccco3)CC1)C2
→ 6%, -22%
- CC1(C(=O)NC2CCCCC2)CCC(=O)N1C1CCN(Cc2ccccc2)CC1 (stereo not drawn)
→ -10%, -1%
- O=C(CSc1ncccn1)NC1CCCC1
→ -9%, -11%
- CS(=O)(=O)c1ccc(Cl)c(NC(=O)COC(=O)CCN2C(=O)C3CC=CCC3C2=O)c1 (stereo not drawn)
→ -12%, -3%
- c1ccc(C2=NCCCO2)cc1
→ -2%, -17%
- CCCCc1c(-c2ccc(Br)cc2)ncn1CCc1ccccc1OC
→ -30%, 35µM*
- CC(C)Oc1cc(F)ccc1-c1cc(C(=O)NCc2cccnc2)[nH]n1
→ 12%, -12%
- O=C(CSc1ccccc1F)NCC(c1ccco1)N1CCCCC1 (stereo not drawn)
→ 2%, -15%
- O=c1ccc2c(ccc3ncccc32)o1
→ -10%, -10%
- CN(C)c1ccc(-c2csc(C(C)(O)c3ccc(F)c(F)c3)n2)cc1 (stereo not drawn)
→ 4%[18.4 µM], -19%
- CCN(C(=O)COC(=O)C(c1ccccc1)c1ccccc1)c1c(N)n(Cc2ccccc2)c(=O)[nH]c1=O
→ 7%, 2%

Overlap with the part before: 4 compounds, followed by the next part.
Results follow in this order: RE007 growth inh, 2A StopGo
- O=C(CSc1ccccc1F)NCC(c1ccco1)N1CCCCC1 (stereo not drawn)
→ 2%, -15%
- O=c1ccc2c(ccc3ncccc32)o1
→ -10%, -10%
- CN(C)c1ccc(-c2csc(C(C)(O)c3ccc(F)c(F)c3)n2)cc1 (stereo not drawn)
→ 4%[18.4 µM], -19%
- CCN(C(=O)COC(=O)C(c1ccccc1)c1ccccc1)c1c(N)n(Cc2ccccc2)c(=O)[nH]c1=O
→ 7%, 2%
- CC(=O)c1sc(NC(=O)CCc2ccccc2)nc1C
→ 2%, 0%
- C[C@@H]1CN([C@@H](C)CO)S(=O)(=O)c2ccc(-c3ccc(C(=O)N(C)C)cc3)cc2O[C@@H]1CN(C)Cc1ccccc1C(=O)O
→ 0%, 46%[activator]
- CCOC(=O)N(C)c1c(CC)nc2c(OCCOc3ccccc3)cccn12
→ -23%[18.4 µM], -18%
- CCOC(=O)C(=O)N(C)c1c(CC)nc2c(OCc3ccccc3OC)cccn12
→ -25%[18.4 µM], -11%
- CCc1cc(-c2nnn(CCC3COCCO3)c2CC)cc(CC)c1-c1cn(CCc2c[nH]c3ccccc23)nn1 (stereo not drawn)
→ 6%, 0%
- O=C(/C=C/[C@H]1O[C@@H](n2ccc(=O)[nH]c2=O)[C@H](O)[C@@H]1O)NC1CCN(Cc2ccccc2)C1 (stereo partly drawn)
→ 1%, -22%
- COC(=O)Cn1c2ccccc2c(=O)n1C(C)C
→ 11%, -4%
- Nc1nc2ccc(Cl)cc2cc1C(=O)NCCCN1CCOCC1
→ -13%, -15%
- COCCNC(=S)N1CCC2CC1c1c(Cl)cccc12 (stereo not drawn)
→ -4%, 11%
- Cc1ccc2nc3n(c(=O)c2c1)-c1cc2ccccc2cc1C(=O)NC3Cc1ccccc1 (stereo not drawn)
→ 19%, ?
- O=C(NCc1ccco1)C1C(=O)Nc2ccccc2C(=O)N1C1CCCCC1 (stereo not drawn)
→ 5%, -9%
- Cc1ccc(C(=O)NCC(=O)OCC(=O)N(CC(C)C)c2c(N)n(Cc3ccccc3)c(=O)[nH]c2=O)s1
→ -1%, -1%
- Clc1ccc(Cn2ncc3c(N4CCN(c5ccccc5)CC4)ncnc32)cc1
→ 0%, 13µM*
- O=C(Nc1ccccn1)c1ccc(Cl)c(S(=O)(=O)N2CCc3ccccc32)c1
→ -13%, 25µM*
- COC(=O)C1=CN(c2ccc(Oc3ccccc3)cc2)C(N)=C(C#N)C1c1cccc(F)c1 (stereo not drawn)
→ -1%, 0%
- CC(NS(=O)(=O)c1ccc2[nH]c(=O)[nH]c2c1)c1ccc(F)cc1 (stereo not drawn)
→ -1%, -20%
- Cc1ccccc1OCCC(=O)Nc1ccc(S(=O)(=O)N2CCCC2)cc1
→ -9%, 0%
- CC1=C(C(=O)N2CCOCC2)CC(CC(=O)NCc2cccc3ccccc23)C(=O)N1CCCN1CCCC1=O (stereo not drawn)
→ 5%, 3%
- COc1ccc(OC)c(CN2CCN(C(=O)c3cc(S(=O)(=O)N4CCOCC4)ccc3C)CC2)c1
→ 0%, -21%
- CN1OC[C@@H]2CN3C(=O)N(c4cccc5ccccc45)c4ccccc4[C@@H]3C[C@@H]21
→ 3%, -15%
- Fc1cccc(Cc2c(-c3ccc(Cl)cc3)nc3ccc(Cl)cn23)c1
→ -5%, 10%
- C[C@@H]1CN([C@@H](C)CO)S(=O)(=O)c2ccc(-c3ccc(C#N)cc3)cc2O[C@@H]1CN(C)Cc1ccccn1
→ -10%, 7%
- CCN(CC)C(=O)C1=C(C)N(Cc2ccccc2)C(=O)C(CC(=O)NCc2cccc3ccccc23)C1 (stereo not drawn)
→ -4%, 0%
- O=C1Nc2ccccc2C1=O
→ -9%, -16%
- CCOC(=O)C1=C(C)NC(C)=C(C(=O)OCC)C1c1ccc(OC)c(OC)c1
→ -18%, ?
- C[C@@H]1CN([C@@H](C)CO)C(=O)c2cc(NS(C)(=O)=O)ccc2O[C@@H]1CN(C)Cc1ccc(C(F)(F)F)cc1
→ 2%, -7%
- CCOC(=O)N1CCN(C(=O)c2ccc3oc(CCc4ccccc4)nc3c2)CC1
→ 5%, 8%
- CC(=O)c1ccc(-c2cnc3c(NC=O)cc(-c4cccc(C(=O)N(C)C)c4)cn23)cc1
→ -2%, -18%
- CCOC(=O)[C@]12CCC=C1N(Cc1ccco1)C(=O)[C@H](CC(=O)NCc1cccc3ccccc13)C2
→ -16%, -20%
- COC[C@H]1CCCN1[C@H]1CS(=O)(=O)N[C@@H]1COCc1ccccc1
→ 6%, -5%
- Cc1ccc(-c2nc3ccc(C)cn3c2CC2CCCCC2)cc1
→ -23%, 13%
- Cc1cc2nc(-c3ccccc3Br)n(/C=C(\c3ccccc3)n3c(=O)[nH]c4ccccc43)c2cc1C
→ 2%, -6%
- Cc1nn(CC(C)C)c(Cl)c1C(=O)N(C)CC(=O)Nc1ccc(Cl)cc1
→ -12%, ?
- CCCCn1nnnc1C1(C)CCC(=O)N1C1CC1 (stereo not drawn)
→ 0%, -3%
- Cc1[nH]c2ccccc2c(=O)c1CNCc1ccccc1
→ -3%, -10%
- CCOC(=O)C1(C)CCCN(C(=O)c2cc(C#N)cs2)C1 (stereo not drawn)
→ 43%, -12%
- C[C@@H]1CN([C@H](C)CO)C(=O)CCCn2nncc2CO[C@@H]1CN(C)C(=O)Nc1cccc2ccccc12
→ -7%, -11%
- O=C1CN(C(=O)CN2CCN(S(=O)(=O)c3ccccc3)CC2)c2ccccc2N1
→ 12%, -22%
- CCC(=O)Nc1ccc2c(c1)OC[C@@H](C)NC[C@@H](C)[C@@H](OC)CN(C)C2=O
→ 3%, -16%
- COc1ccc(NC(=O)C2(C)CCN2Cc2ccccc2OC(F)F)cc1OC (stereo not drawn)
→ -3%[18.4 µM], -29%
- Cn1c(NCc2ccc3occc3c2)nc2cc(-c3ccc(F)cc3)sc2c1=O
→ 10%, -21%
- CCc1ccc2c(c1)NC(=O)C2(C)Cc1ccc(C(F)(F)F)nc1 (stereo not drawn)
→ -11%, -18%
- CC1CCC(C(C)C)C(NC(=O)c2ccncc2)C1 (stereo not drawn)
→ -3%, -17%
- Nc1ccc(CC(N)c2csc(Nc3nncc4ccccc34)n2)cc1 (stereo not drawn)
→ 8%[18.4 µM], -20%
- Cc1cc(C)c(NC(=O)C2CCN(S(C)(=O)=O)CC2)c(C)c1
→ -19%, -17%
- CCCCNC(=O)C1(C)CCN1C(=O)c1cncc(Br)c1 (stereo not drawn)
→ -6%[18.4 µM], 7%
- O=C(c1ccc2ccccc2c1)c1cccc(F)c1C(=O)O
→ -28%, -6%
- CCc1nc2ccc(C(=O)NCCN(C)C)cn2c1N(CC)CCOC
→ 4%[18.4 µM], 0%
- COc1ccc(-c2cc(CNc3nc4cc(-c5ccccc5C)sc4c(=O)n3C)on2)cc1
→ 11%, 30%[activator]
- OC(c1ccc(Cl)c(F)c1)c1ncc(-c2cccc(C(F)(F)F)c2)[nH]1 (stereo not drawn)
→ -15%, 32%[activator]
- COC(=O)C1=CN(c2ccc(Oc3ccccc3)cc2)C(N)=C(C#N)C1c1ccccc1 (stereo not drawn)
→ -16%, 4%
- CCCC#Cc1ccc2c(c1)O[C@H](CN(C)S(=O)(=O)c1cccc(OC)c1)[C@H](C)CN([C@H](C)CO)S2(=O)=O
→ 2%, 25%
- O=Cc1ccc([B-](F)(F)F)s1
→ 0%, -10%

This is a subset; count on the stated rates, not on these rows.
